KCNQ2 pot = potentiators of rat KCNQ2 potassium channel; O88943; CHO-K1 KCNQ2, FluxOR thallium flux fluorescence; stronger effect = higher value; B-score at 10 µM; hit rate 0.54% among 310,000; AID 2239;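 active = fluorescence ratio B-score at least 3 SD of library B-scores, with initial fluorescence B-score within 3 SD, cut at about 5.3 in these data; same plate scores as AID 2156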;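 note: B-score of peak minus minimum over baseline fluorescence ratio after K+ and Tl+ stimulus; positive B-score means potentiation of KCNQ2 with more thallium influx and brighter signal; only the inactives scoring about 0 or higher are listed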
Target sequence (O88943 whole entry, looked up): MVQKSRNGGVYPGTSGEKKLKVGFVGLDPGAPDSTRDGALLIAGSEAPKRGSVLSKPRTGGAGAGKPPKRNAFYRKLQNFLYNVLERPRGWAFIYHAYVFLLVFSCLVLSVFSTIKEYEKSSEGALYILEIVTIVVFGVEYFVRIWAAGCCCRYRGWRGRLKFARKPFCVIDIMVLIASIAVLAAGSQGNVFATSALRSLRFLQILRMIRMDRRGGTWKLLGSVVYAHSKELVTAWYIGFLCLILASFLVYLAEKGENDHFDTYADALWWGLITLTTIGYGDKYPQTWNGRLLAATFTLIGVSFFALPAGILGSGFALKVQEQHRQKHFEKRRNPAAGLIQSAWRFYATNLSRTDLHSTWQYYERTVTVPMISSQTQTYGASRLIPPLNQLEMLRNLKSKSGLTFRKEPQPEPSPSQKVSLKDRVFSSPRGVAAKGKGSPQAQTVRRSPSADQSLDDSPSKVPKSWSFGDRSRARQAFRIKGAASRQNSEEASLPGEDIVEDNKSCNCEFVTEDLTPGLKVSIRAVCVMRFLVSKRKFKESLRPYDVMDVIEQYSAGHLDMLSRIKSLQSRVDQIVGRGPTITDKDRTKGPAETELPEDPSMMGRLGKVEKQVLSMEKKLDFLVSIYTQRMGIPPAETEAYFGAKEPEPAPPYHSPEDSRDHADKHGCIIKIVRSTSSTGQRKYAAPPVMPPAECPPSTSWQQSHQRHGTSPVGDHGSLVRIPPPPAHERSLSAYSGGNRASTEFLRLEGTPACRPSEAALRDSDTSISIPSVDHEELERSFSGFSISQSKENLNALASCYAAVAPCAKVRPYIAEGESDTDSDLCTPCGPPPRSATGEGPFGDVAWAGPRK
KCNQ2 pot baseline = also measured in KCNQ2 pot; calls as there; B-score; compound at 10 µM; measured here: initial fluorescence intensity artifact check;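 brightness before thallium and not channel activity; 0 = typical well and far values either way flag optical interference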
Numbers without * were called inactive.

SMILES | KCNQ2 pot | KCNQ2 pot baseline
O=S(=O)(N/N=C1/CCCc2ccccc21)c1ccc(Br)cc1 | 0.8 | -0.44
COc1cc(C2NC(=O)NC(C)=C2C(=O)OCC2CCCCC2)ccc1O (stereo unspecified) | 2.2 | -1.05
O=C(CSc1nncs1)Nc1ccc(S(=O)(=O)N2CCCC2)cc1 | 0.64 | 0.68
CCOC(=O)Cc1nnc(NC(=O)COc2ccc(OC)cc2)s1 | 0.06 | -0.99
Cc1nc2ccccc2n1CCC(=O)Nc1cccc(F)c1 | 0.2 | 0.74
Cc1cccc(C(=O)Nc2ccc3c(c2)C(=O)N(CC(C)C)C3=O)c1 | 1.46 | -0.06
CCOc1ccc(S(=O)(=O)Nc2cccc(C)c2)c2cccnc12 | 0.16 | 0.09
O=C(Nc1nccs1)c1cccc(NC(=O)c2ccco2)c1 | 1.43 | -0.35
Cc1c2c(nc3nnnn13)CCCC2 | 0.55 | 0.06
Cc1cc(C(=O)NNC(=O)c2cccc(C(F)(F)F)c2)no1 | 1.83 | -0.55
O=S(=O)(c1cccc2nonc12)N1CCCCC1 | 0.56 | 1.8
CCn1c(SCC(=O)N(C)c2c(N)n(Cc3ccccc3)c(=O)[nH]c2=O)nc2ccccc21 | 2.27 | -1.64
COc1ccc(NC(=O)c2c(C)cc(=O)oc2C)c(OC)c1 | 0.98 | 0.13
CC1(C)Cc2c(sc(NC(=O)Nc3ccccc3)c2C(N)=O)CO1 | 1.8 | -0.1
CCCN(CCO)Cc1ccc(Br)cc1 | 1.01 | -1.53
C=CCNc1cnn(-c2ccc(C)cc2)c(=O)c1Cl | 0.07 | 0.9
CC(=O)c1ccc(NC(=O)COC(=O)CCN2C(=O)c3cccc([N+](=O)[O-])c3C2=O)cc1 | 0.04 | 1.01
COC(=O)c1cccc(NC(=O)NC(=O)c2ccc(Cl)cc2)c1 | 1.11 | 1.81
CCn1c(=S)[nH]c2sc3c(c2c1=O)CCCCC3 | 10.3* | 0.24*
CCN(CC)CCCOc1ccc(C)cc1Br | 1.85 | 0
Cc1ccc(NC(=O)OCc2ccccc2S(C)=O)cc1 (stereo unspecified) | 1.5 | 1.83
NC(=S)Nc1cccc(-c2n[nH]c(=S)o2)c1 | 0.81 | -2.66
O=C(Nc1cccc(S(=O)(=O)NC2=NCCC2)c1)C1CCCCC1 | 0.94 | -0.08
CC(C)C[C@H](NC(=O)N1CC(=O)Nc2ccccc21)C(=O)N[C@H](Cc1c[nH]c2ccccc12)C(=O)O | 0.43 | -0.41
COc1ccc(CCNC(=O)CSc2nnc(Cc3cccn3C)n2C)cc1OC | 0.42 | 0.02

The list continues.
SMILES | KCNQ2 pot | KCNQ2 pot baseline
CC1(C)C([N+](=O)[O-])C(c2ccccc2O)NC(c2ccccc2O)C1[N+](=O)[O-] (stereo unspecified) | 1.59 | -0.02
COCCNC(=O)c1ccc(CN2CCOCC2)cc1 | 0.02 | -0.42
O=c1[nH]c(CSc2nc3ccccc3s2)nc2ccccc12 | 1.8 | 0.42
N#C/C(=C/c1ccc(CNC(=O)C(=O)Nc2cc(Cl)cc(Cl)c2)o1)C(=O)NCc1cccnc1 | 0.79 | 0.06
COc1cc(CO)ccc1Oc1nnnn1-c1ccc(C(N)=O)cc1 | 0.39 | 1.18
COc1ccc(OC)c(S(=O)(=O)N2CCN(c3ccccc3OC)CC2)c1 | 0.33 | -3.06
CCc1noc(C)c1C(=O)Nc1nc(-c2ccc(OC)c(OC)c2)cs1 | 1.46 | -0.05
COc1cc(C(=O)O/N=C2/C=C(C)C(=O)C=C2C)cc(OC)c1OC | 0.34 | -2.86
CCc1cc2ccc(OC)cc2nc1SCC(=O)N1CCN(C(=O)c2ccco2)CC1 | 3.11 | -1.89
COc1ccc(CNS(=O)(=O)c2ccc(-n3cccn3)cc2)cc1 | 0.41 | 0.42
CCOC(=O)c1ccccc1NC(=O)c1c(N)n(C)c(=O)[nH]c1=O | 1.75 | 0.81
COc1ccccc1-c1ccc(=O)n(CC(=O)NCc2ccc3c(c2)OCO3)n1 | 0.13 | 1.12
O=C(NC(=S)N1CCCCCC1)c1ccccc1 | 1.66 | -2.05
COc1cccc(N2CC(=O)N(NC(=O)c3sc4nc(C)cc(C)c4c3N)CC2=O)c1 | 0.8 | 0.99
Cc1nn(-c2ccccc2)c2[nH]c(=O)c(CNc3ccc4c(c3)OCCO4)cc12 | 1.4 | -0.94
N#Cc1ccc(Cl)cc1NC(=O)CNCc1cccs1 | 0.35 | 1.26
CC(=O)Nc1ccc(NC(=S)NC(=O)c2ccc(-c3ccccc3)cc2)cc1 | 1.47 | -0.67
CC(Oc1ccc(Cl)cc1Cl)C(=O)NCCN1CCOCC1 (stereo unspecified) | 0.89 | 1.24
CC(C)Oc1ccc(C(CC(=O)O)NC(=O)C2CCCCC2)cc1 (stereo unspecified) | 0.13 | 0.98
O=C(N/N=C/c1ccc(O)c(O)c1)c1cccc(S(=O)(=O)N2CCCC2)c1 | 0.2 | 0.86
CC1=NN(C(=O)c2ccc(Cn3nc(C)c([N+](=O)[O-])c3C)cc2)C(O)(C(F)(F)F)C1 (stereo unspecified) | 2.36 | 1.71
COCc1cc(C)nc(SCc2ccccc2)c1C#N | 0.77 | 0.64
Cc1cc(CNC(=O)COc2c(F)c(F)cc(F)c2F)c2ccccc2n1 | 0.05 | 1.06
O=C(Cn1sc2ccccc2c1=O)N1CCN(C(=O)c2ccco2)CC1 | 0.37 | -1.24
COc1ccc(CCNC(=S)NNC(=O)c2c(Br)c(C)nn2C)cc1OC | 1.21 | 0.38

Laid out differently: 2 of the compounds above
> Cc1cc(CNC(=O)COc2c(F)c(F)cc(F)c2F)c2ccccc2n1
  KCNQ2 pot = 0.05
  KCNQ2 pot baseline = 1.06

> N#C/C(=C/c1ccc(CNC(=O)C(=O)Nc2cc(Cl)cc(Cl)c2)o1)C(=O)NCc1cccnc1
  KCNQ2 pot = 0.79
  KCNQ2 pot baseline = 0.06

Next section:
SMILES | KCNQ2 pot | KCNQ2 pot baseline
COc1ccc(CNc2ncnc3sccc23)cc1OC | 2.2 | 0.2
Cc1cc(S(=O)(=O)N2CCCOC2CNC(=O)C(=O)NCc2ccco2)ccc1F (stereo unspecified) | 0.41 | 0.2
CC1CC(C)CN(C(=O)Nc2ccccc2F)C1 (stereo unspecified) | 1.11 | 0.29
Cc1c(/C=N/NC(=O)c2cc(=O)[nH]c(=O)[nH]2)c2ccccn2c1C(=O)c1ccccc1 | 0.02 | 3.33
Nc1[nH]nc2nc(N3CCCC3)nc(-c3ccccc3)c12 | 1.29 | -0.94
O=C(CCN1C(=O)C2C3C=CC(C3)C2C1=O)N1CCN(c2ccccn2)CC1 (stereo unspecified) | 0.38 | 0.61
CN(C)S(=O)(=O)c1cccc(CSCc2cccc(S(=O)(=O)N(C)C)c2)c1 | 1.36 | -1.11
COc1ccc(/C=N/Nc2nccnc2Cl)c(OC)c1 | 0.52 | 0.17
C=C(C)CSc1nnc2[nH]c(=O)cc(N)n12 | 2.17 | 0.54
CCN1CCN(Cc2c(C(=O)N/N=C(\C)c3ccc(Cl)cc3)nnn2-c2nonc2N)CC1 | 1.79 | 0.56
Cc1nc(NC(=O)c2ccccc2)sc1-c1csc(Nc2cccc(F)c2)n1 | 0.54 | -0.46
CCCCC(=O)NC(NC(=S)N1CCCCCC1)C(Cl)(Cl)Cl (stereo unspecified) | 0.27 | 0.88
O=c1nccc(N/N=C/c2ccccc2)[nH]1 | 0.45 | 0.11
CCOCC(=O)Nc1c(C)n(C)n(-c2ccccc2)c1=O | 1.24 | -1.31
O=Cc1c(-c2ccccc2)nc2ccccn12 | 0.45 | 0.07
CC(=O)NC1C(=O)N=C(SCC(=O)Nc2cccc(Cl)c2)NC1=O (stereo unspecified) | 0.61 | 1.4
CCOC(=O)c1cc(-c2ccccc2)sc1NC(=O)COC(=O)c1ccc(Cl)c(S(N)(=O)=O)c1 | 0.1 | -0.5
CC(C)C(=O)N(c1cc2sc(=O)oc2c2ccccc12)S(=O)(=O)c1cccs1 | 0.65 | 1.74
O=C(COc1ccc(Br)cc1)NCCNC(=O)c1ccccn1 | 0.46 | -0.05
CCN(CC(N)=O)S(=O)(=O)c1ccc(Br)cc1 | 0.06 | 0.42
COc1ccc(OC)c2sc(NNC(=O)C3COc4ccccc4O3)nc12 (stereo unspecified) | 0.35 | -1.91
CCN(CC)S(=O)(=O)c1cc(Br)ccc1OC | 0.94 | 0.68
COc1ccc(-c2cc(C)no2)cc1S(=O)(=O)NCCCN(C)Cc1ccccc1 | 0.18 | -0.46
CCCC/C(O)=C/c1nc2ccccc2[nH]c1=O | 2.12 | 3.23
COc1cccc(C(=O)c2c[nH]c(C(=O)NCCCN(C)C)c2)c1 | 1.45 | -0.62

Some of the entries so far, with tabs:
smiles	KCNQ2 pot	KCNQ2 pot baseline
COc1ccc(CNc2ncnc3sccc23)cc1OC	2.2	0.2
Cc1cc(S(=O)(=O)N2CCCOC2CNC(=O)C(=O)NCc2ccco2)ccc1F (stereo unspecified)	0.41	0.2

6 of the entries above in order of their number in KCNQ2 pot, largest number first:
SMILES | KCNQ2 pot | KCNQ2 pot baseline
COc1ccc(CNc2ncnc3sccc23)cc1OC | 2.2 | 0.2
CCCC/C(O)=C/c1nc2ccccc2[nH]c1=O | 2.12 | 3.23
CCN(CC)S(=O)(=O)c1cc(Br)ccc1OC | 0.94 | 0.68
O=Cc1c(-c2ccccc2)nc2ccccn12 | 0.45 | 0.07
Cc1cc(S(=O)(=O)N2CCCOC2CNC(=O)C(=O)NCc2ccco2)ccc1F (stereo unspecified) | 0.41 | 0.2
CCCCC(=O)NC(NC(=S)N1CCCCCC1)C(Cl)(Cl)Cl (stereo unspecified) | 0.27 | 0.88

(cont.)
SMILES | KCNQ2 pot | KCNQ2 pot baseline
O=C(NCCc1nc2ccccc2[nH]1)/C(=C/c1ccc2c(c1)OCO2)NC(=O)c1ccccc1 | 0.02 | -2.07
O=C(COC(=O)Cc1cccs1)Nc1ccc(F)c(F)c1F | 0.9 | -1.01
COc1ccc(CCCC(=O)NCC(=O)N/N=C/c2cc(Cl)ccc2OC)cc1 | 0.36 | 0.51
O=C(NC(=S)Nc1ccc(N2CCCC2)cc1)c1ccc(F)cc1 | 0.31 | -0.11
Cc1cc(OCC(=O)N2CCOCC2)ccc1[N+](=O)[O-] | 1.03 | 0.03
O=S(=O)(NC1=NCCC1)c1cccs1 | 0.08 | 0.68
O=C(CCCc1ccccc1)Nc1ccccn1 | 2.26 | -1.11
COC(=O)c1sccc1NC(=O)C1C2C=CC(C2)C1C(=O)O (stereo unspecified) | 0.19 | 1.4
COc1cc2cc(/C=C/C(=O)c3ccco3)c(Cl)nc2cc1OC | 1.55 | 0.37
CCS(=O)(=O)n1nc(-c2ccccc2)nc1N | 0.85 | -1.34
O=C(COC(=O)c1ccccc1NC(=O)c1ccco1)NCCC1=CCCCC1 | 0.71 | 0.15
CC(=O)OCc1c(C(F)(F)F)nn(C)c1SCc1ccc(Cl)cc1 | 2.11 | 0
Cc1ccc(/C=C2/NC(=O)N(Cc3ccccc3)C2=O)s1 | 0.2 | 2.09
CC1CCN(C(=O)CCc2nnc3ccc(NCc4ccco4)nn23)CC1 | 0.87 | -0.55
N=c1n(N)c2ccccc2n1CC(=O)c1ccc(Br)cc1 | 0.57 | -0.04
CC(=O)Nc1ccc(N2C(=O)CCC2=O)cc1C | 0.27 | -2.82
Cc1cc2cc(CNC(=O)Nc3ccccc3)ccc2[nH]1 | 4.22 | -0.18
Cc1c(C(C)(C)O)[nH]c2ccc(C#N)cc12 | 0.69 | 0.99
COc1cc(OC)c(CN2CCN(c3ccc(F)cc3)CC2)cc1Br | 0.11 | 0.35
COc1ccc(S(=O)(=O)N2C(=O)/C(=C3\SC(N)=NC3=O)c3ccccc32)cc1 | 0.98 | 0
O=C(Cn1nnc(-c2ccccc2F)n1)OCC(=O)c1ccccc1 | 0.05 | -0.03
N=c1n(CCN2CCOCC2)c2ccccc2n1CC(O)COc1ccccc1 (stereo unspecified) | 0.78 | -0.4
O=C(Nc1ccc2c(c1)OCO2)C1CCCN(S(=O)(=O)Cc2ccccc2)C1 (stereo unspecified) | 1.74 | 0.28
CCOc1cccc(-c2c(C(=O)N/N=C(\C)c3cccnc3)nnn2-c2nonc2N)c1 | 0.03 | 0.74
C=CC(C)n1c(Br)nc2c1c(=O)[nH]c(=O)n2C (stereo unspecified) | 0.07 | 0.65

Continuation:
SMILES | KCNQ2 pot | KCNQ2 pot baseline
COc1ccc(-c2nnc3sc(CN4C(=O)c5ccccc5C4=O)nn23)cc1 | 0.06 | 0.1
O=C(COc1ccc2ccccc2c1)N1CCCC1 | 0.07 | 0.16
NS(=O)(=O)c1cccc(NC(=O)Cc2ccc(Cl)c(Cl)c2)c1 | 0.81 | -0.05
Cc1ccc(C(=O)Oc2cc(-c3ccccc3)no2)cc1 | 0.02 | -0.13
Cc1ccc(C(=O)Nc2ccc(C(=O)NCC3CCCO3)cc2)cc1 (stereo unspecified) | 0.36 | -1.46
Cc1c(Cl)cccc1NC(=O)CC1Oc2ccccc2NC1=O (stereo unspecified) | 0.3 | 2.17
CCOC(=O)C1=C(C)OC(N)=C(C#N)C1c1ccc(C)o1 (stereo unspecified) | 1.74 | -1.56
Cc1cc2ccccc2n1CCNC(=O)C1CCCC1 | 0.67 | -0.54
O=C(CN(C(=O)CNC(=O)c1cccs1)c1cccc(F)c1)NC1CCCCC1 | 1.08 | 2.36
COc1ccc(OCC(=O)Nc2ccc(NC(=O)c3ccco3)cc2)cc1 | 0.03 | -0.38
CCOc1ccccc1N1CN(CC)CNC1=S | 1.13 | -1.32
CCCNC(=O)Cn1nc(C(F)(F)F)c2c1CCCC2 | 0.96 | -0.01
CC1CCCC(C)N1S(=O)(=O)c1ccc(NC(=O)CNCC2CCCO2)cc1 (stereo unspecified) | 0.08 | 0.08
CC1=C(C)C(=O)N(C(C)CCc2ccccc2)C1=O (stereo unspecified) | 3.45 | 1.88
O=C(NCc1ccccc1)c1cc(S(=O)(=O)N2CCOCC2)ccc1F | 0.86 | -0.06

Not all compounds are listed; count on the stated rates, not on these rows.
